rRNA inh HTS: reduced GFP signal of wild-type E. coli, primary screen, bacterial rRNA inhibitor project, GFP/RFP fluorescence, OD600, single point; E. coli WT GFP vs humanized-ribosome RFP mutants, 24 h; hits give low values; DMSO median 0, no signal -100; GFP signal change (wild-type ribosome), % (no concentration beside the values); 350,000 tested, 1.6% active; AID 720706, 2013;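 active = significant combined selectivity score with lowered wild-type GFP, culture density cut under 30%, mutant RFP and density less affected; inactive = any of these conditions unmet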; also: one replicate is shown; some compounds called inactive have numbers as strong as hits
UCH37 DUB inh: inhibitors of human UCH37 deubiquitinase, primary screen, biochemical, Ub-AMC cleavage, fluorescence | 330,000 tested, 0.33% active | inhibition, % (concentration not given with the values) | purified proteasome/UCH37 | Ubiquitin carboxyl-terminal hydrolase isozyme L5 (Homo sapiens), Q9Y5K5 | AID 588478, 2011;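 active = mean of two replicates above 20%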;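 also: 0% = compound-free wells with enzyme and 100% = wells lacking proteasome; stock transfer was 100 nL into about 20 µL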
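system = Proteasome-associated human UCH37 deubiquitinase | amount = 0.15 nM proteasome as dispensed | medium = pH 7.4 Tris-HCl (50 mM) with ovalbumin, ATP-MgCl2, DTT | incubation = 30 min preincubation with enzyme, 25 min cleavage at room temperature | detection = AMC fluorescence 355/460 nm | read-out basis = percent inhibition | controls = no-proteasome and no-compound wells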
HNF4A DNA FP: change in binding of human HNF4A to DNA, primary screen, biochemical, fluorescence polarization, FITC-DNA; 360,000 tested, 0.3% active; 1 h; AID 1224865, 2016; activity change, % at 10 µM; Hepatocyte nuclear factor 4-alpha (Homo sapiens), P41235; in the data active = activity change above about 30%, passing the limit was not always enough;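 also: controls were the assay level and a saturating level of protein; the project sought stronger binding though the title names inhibitors; some compounds called inactive have numbers as strong as hits; positive values seem to mean higher polarization but the record does not say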
Target sequence (P41235 whole entry, looked up): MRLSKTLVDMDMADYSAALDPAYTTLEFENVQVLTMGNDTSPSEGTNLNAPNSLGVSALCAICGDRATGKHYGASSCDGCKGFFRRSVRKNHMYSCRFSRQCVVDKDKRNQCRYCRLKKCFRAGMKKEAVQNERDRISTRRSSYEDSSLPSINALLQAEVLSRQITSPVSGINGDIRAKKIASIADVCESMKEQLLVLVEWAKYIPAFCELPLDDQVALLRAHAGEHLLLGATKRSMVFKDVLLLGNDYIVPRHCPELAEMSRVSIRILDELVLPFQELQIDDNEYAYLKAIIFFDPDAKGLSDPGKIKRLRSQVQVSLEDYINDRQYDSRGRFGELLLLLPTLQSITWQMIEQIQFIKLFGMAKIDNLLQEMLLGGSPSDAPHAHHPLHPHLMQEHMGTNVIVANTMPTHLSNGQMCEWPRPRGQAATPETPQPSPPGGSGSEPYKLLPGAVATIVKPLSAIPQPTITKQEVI
E coli growth: E. coli growth inhibition, primary screen, OD600; 330,000 tested, 0.21% active; OD600 absorbance (concentration not given with the values); AID 1053175, 2014; Escherichia coli growth, 23 h; hits give low values;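 active = OD600 absorbance below the run mean of sample wells minus 3.6 SD, in any replicate, cut at about 0.56 in these data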;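 also: stock transfer was 300 nL into about 60 µL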
FGF22 binding: binders of human FGF22 protein, primary screen, FGF22 synaptogenesis inhibitor project, biophysical, thermal shift, single point. Fibroblast growth factor 22 (Homo sapiens), Q9HCT0. recombinant FGF22 thermal shift, SYPRO orange fluorescence; percent of sucrose octasulfate shift, DMSO zero. calls only at 9.99 µM. 340,000 tested, 1.5% active. AID 651658, 2012;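 active = melting point raised past a set limit in the mean and every replicate; inconclusive = no clear call; three in four hits are not shown here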
Target sequence (Q9HCT0 whole entry, looked up): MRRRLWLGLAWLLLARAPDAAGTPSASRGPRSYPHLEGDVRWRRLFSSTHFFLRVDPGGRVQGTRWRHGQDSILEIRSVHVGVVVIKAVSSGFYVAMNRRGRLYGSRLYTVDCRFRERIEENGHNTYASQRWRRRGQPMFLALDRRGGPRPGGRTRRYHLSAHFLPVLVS
Beta2AR agonist: beta2AR agonists driving receptor internalization, primary screen, cell-based, FAP fluorogen, flow cytometry; Beta-2 adrenergic receptor (Homo sapiens), P07550; Am2.2-beta2AR cells; reference of the scale not given here; response, % (concentration not given with the values); AID 504454, 2011; 340,000 tested, 0.43% active;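 active = response above a set limit, near 3 SD of response in nonfluorescent compounds, cut at about 42% in these data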;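 also: stock transfer was 100 nL into about 11 µL; a reference agonist was the positive control; negative values mostly stem from fluorescent compounds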
Target sequence (P07550 whole entry, looked up): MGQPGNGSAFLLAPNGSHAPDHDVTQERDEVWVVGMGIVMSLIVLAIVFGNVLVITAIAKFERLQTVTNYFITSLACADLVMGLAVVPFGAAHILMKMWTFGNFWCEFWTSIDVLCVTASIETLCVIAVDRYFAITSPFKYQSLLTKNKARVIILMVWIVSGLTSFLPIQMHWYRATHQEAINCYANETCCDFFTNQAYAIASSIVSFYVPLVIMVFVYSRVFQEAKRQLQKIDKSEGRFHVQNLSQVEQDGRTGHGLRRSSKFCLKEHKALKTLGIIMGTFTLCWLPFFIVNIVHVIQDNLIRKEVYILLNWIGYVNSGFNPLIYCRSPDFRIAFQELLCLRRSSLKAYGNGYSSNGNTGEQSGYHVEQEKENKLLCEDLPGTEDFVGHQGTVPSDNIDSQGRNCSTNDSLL
ALR H2O2 inh: inhibitors of human ALR sulfhydryl oxidase, primary screen, biochemical, H2O2 detection, HRP-luminol luminescence, single point; purified ALR, DTT oxidation; inhibition, % (no concentration beside the values); 290,000 tested, 3.8% active; FAD-linked sulfhydryl oxidase ALR (Homo sapiens), P55789;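 active = mean and each replicate at 75% or more; inconclusive = only one of the two met; inactive = neither met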;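 also: stock transfer was 7.5 nL into about 7.5 µL; 0% = neutral wells and 100% = wells with inactivated enzyme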
rRNA inh HTS OD600: recorded beside rRNA inh HTS, whose call it bears; OD600 change, %; measured here: OD600 growth;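 optical density of the mix in the first replicate; 0 = DMSO median and -100 = no signal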
rRNA inh HTS RFP: also measured in rRNA inh HTS; calls as there; RFP signal change, %; measured here: RFP humanized mutant strains;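 first replicate; 0 = DMSO median and -100 = no signal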
Numbers without * were called inactive; i = inactive; ? = inconclusive; . = not tested or not shown; & = joins results of further samples.

SMILES	rRNA inh HTS	rRNA inh HTS OD600	rRNA inh HTS RFP	UCH37 DUB inh	HNF4A DNA FP	E coli growth	FGF22 binding	Beta2AR agonist	ALR H2O2 inh
CCC(=O)Nc1ccccc1N1CCN(S(C)(=O)=O)CC1	10	8	-2.0	3.9	1.5	0.69	.	3	-4
CCCCOc1ccc(C(O)C(CN2CCOCC2)c2ccccc2)cc1 (stereo not drawn)	1	-2	1.0	2.6	-1.1	0.66	i	-3	.
CCOC(=O)C1CCN(C(=O)C2(NC(=O)NC3CCCCC3)CCCCC2)CC1	3	-19	-0.9	1.4	0.6	0.7	i	0	.
CC(=O)n1cc(/C=N/NC(=O)c2cccc(O)c2)c2ccccc21	-23*	-14*	1.7*	.	3.4	.	i	6	-1
COc1cc(NS(=O)(=O)c2ccc(NC(=S)NC(=O)/C=C/c3ccco3)cc2)ncn1	1	0	8.3	8.2	-42	0.72	i	-2	.
Cc1ccc(C2=NN(CCC(=O)NCCC(C)C)C(=O)CC2)cc1	.	.	.	1.9	.	0.7	.	.	3
Cn1ccnc1C(=O)c1ccccc1Cl	10	13	-0.8	4.2	0.2	0.64	i	-3	-2
Cc1ccc(C)c(N2CCN(C(=O)c3cc4sccc4n3C)CC2)c1	.	.	.	6.6	0.2	0.74	.	5	-46
CC(C)C(OC(=O)c1nsc(Cl)c1Cl)C(=O)NCc1ccccc1 (stereo not drawn)	0	3	0.9	1.5	-2.3	0.66	i	2	-5
CCN(CC)S(=O)(=O)c1ccc2oc(C(=O)NC3CC3)c(C)c2c1	4	2	-1.7	1.7	0.9	0.66	i	-5	-1
O=C(Nc1ccc(C(=O)O)cc1)/C(=C\c1ccc2c(c1)OCO2)NC(=O)c1ccc(Br)cc1	-14	-30	-2.2	6.8	-4.2	.	.	-7	33
CCNC(=O)COC(=O)CNC(=O)c1cc(Cl)cc([N+](=O)[O-])c1	7	12	6.6	2.3	-0.9	0.68	i	4	-8
Cc1cc([N+](=O)[O-])ccc1-c1ccc(/C=N/NC(=O)c2ccc(Br)o2)o1	8	10	2.8	.	16	.	i	8	0
COc1ccc(/C=C/C(=O)Nc2cccnc2)cc1OC	-21*	-6.6*	-4.8*	-44	-0.7	0.65	i	-4	-1
CC(C)CC(=O)NCCCN1CCN(CCCNC(=O)CC(C)C)CC1	.	.	.	2.7	0.5	0.7	.	2	-2
CCN1CCN(C(=O)c2cc(COc3ccc(C(C)=O)cc3OC)on2)CC1	9	4	0.9	3.8	-6.9	0.7	i	-4	-1
O=C(COC(=O)c1cc2ccccc2cc1O)NC1CCCCC1	8	8	1.9	0.3	-3.6	0.71	i	-1	-30
O=c1cc(-c2ccccc2)nc(SCc2ccccc2)[nH]1	.	.	.	-1.4	-0.3	0.79	.	-5	-1
O=C(NCCCN1CCOCC1)c1cc(Cl)ccc1OCc1ccccc1	3	8	5.6	2.9	5.1	0.66	i	-2	-6
O=[N+]([O-])c1ccc(S(=O)(=O)NN=Cc2ccc3c(c2)OCO3)cc1	8	23	-1.0	4.0&4.8	-3.2	0.65&0.7	i	-12	.
Cc1cccc(NC(=S)N(Cc2ccc(Cl)cc2)Cc2ccc(C(=O)O)cc2)c1	-8	-6	-1.7	1.3	-2.2	0.67	i	-7	18
CC1Cc2[nH]c(=S)[nH]c(=O)c2C(c2ccc(F)cc2)O1 (stereo not drawn)	11	9	-0.1	.	-2.3	.	i	.	.
Cc1ccccc1CSc1nnc(-c2ccccn2)n1N	.	.	.	3.2	-0.8	0.65	.	6	-14
CCc1ccc2oc(-c3ccc(OC)cc3)cc(=Nc3c(C)n(C)n(-c4ccccc4)c3=O)c2c1	-13	-7	-2.8	-12	3.2	0.71	i	38	1
COc1ccc(Cn2c(CCC(=O)Nc3ccccc3OC)nc3cccnc32)cc1	7	1	3.3	3.0	1.3	0.73	i	-4	-15
CC(=O)Nc1ccc(NC(=O)CCCSc2nc3ccccc3[nH]2)cc1	2	10	8.3	3.6	2.0	0.65	i	-8	-5
Fc1ccc(Cn2ccc(-c3cnc(-c4ccccc4)s3)n2)cc1	.	.	.	-250	3.1	0.71	.	7	19
Cc1cccc(OCc2nc(C)cc(=O)[nH]2)c1	.	.	.	1.8	-0.8	0.7	.	-5	.
CCOCc1nnc(NC(=O)CCC2CCCCC2)s1	6	8	-2.5	0.9	-1.1	0.66	i	-2	-7
CCCCNC(=S)NNC(=O)c1ccncc1	7	0	-1.0	3.7	-2.1	0.68	i	-1	.
C[C@H](CO)NC(=O)[C@H](C)[C@@H]1C[C@@]1(C)[C@@H](NC(=O)OCc1ccccc1)c1ccccc1	2	17	2.8	4.2	-0.4	.	i	5	-2
CSc1nc2c(=S)[nH]c(=S)[nH]c2s1	11	14	0.5	.	-1.4	.	i	.	.
CN(CC(O)Cn1cnc2c1c(=O)n(C)c(=O)n2C)c1ccccc1 (stereo not drawn)	4	12	2.0	2.5	-0.8	0.71	i	-5	?
Cc1ccc(C)c(C(O)c2ncc(-c3ccc(C(F)(F)F)cc3)[nH]2)c1 (stereo not drawn)	-51	-79	-16	.	1.9	.	i	.	.
COC(=O)c1cccc2c(C(=O)O)cc(-c3ccccc3)nc12	-8	-12	1.1	.	0.9	.	i	4	.
Cc1cccc(-n2ncc3c2CCCC3NC(=O)c2cccs2)c1C (stereo not drawn)	2	8	-0.1	.	1.8	.	i	.	.

Single records (already shown). Order of values: rRNA inh HTS	rRNA inh HTS OD600	rRNA inh HTS RFP	UCH37 DUB inh	HNF4A DNA FP	E coli growth	FGF22 binding	Beta2AR agonist	ALR H2O2 inh
Shown for `CSc1nc2c(=S)[nH]c(=S)[nH]c2s1` = 11	14	0.5	.	-1.4	.	i	.	.
Shown for `C[C@H](CO)NC(=O)[C@H](C)[C@@H]1C[C@@]1(C)[C@@H](NC(=O)OCc1ccccc1)c1ccccc1` = 2	17	2.8	4.2	-0.4	.	i	5	-2
Shown for `Fc1ccc(Cn2ccc(-c3cnc(-c4ccccc4)s3)n2)cc1` = .	.	.	-250	3.1	0.71	.	7	19
Shown for `CC(=O)Nc1ccc(NC(=O)CCCSc2nc3ccccc3[nH]2)cc1` = 2	10	8.3	3.6	2.0	0.65	i	-8	-5

(further entries)
SMILES	rRNA inh HTS	rRNA inh HTS OD600	rRNA inh HTS RFP	UCH37 DUB inh	HNF4A DNA FP	E coli growth	FGF22 binding	Beta2AR agonist	ALR H2O2 inh
COc1ccc(C(=O)Nc2ccc(C(=O)OCC(=O)c3ccccc3)cc2)cc1	.	.	.	0.1	-0.1	0.73	.	3	3
CC(=O)c1c(C)[nH]c(C(=O)COC(=O)COc2ccccc2F)c1C	8	7	1.6	.	1.6	.	i	-1	-8
COc1cc(CNc2ccc(C)c(C)c2)cc(OC)c1OC	.	.	.	4.8	-2.3	0.7	.	-1	97*
CSc1nnc(C(C)(C)C)c(=O)n1/N=C/c1ccccc1	.	.	.	.	-1.0	.	i	2	-15
CC(=O)NC1(c2ccc(F)cc2)CCN(C(=O)c2c(F)cccc2F)CC1	16	3	2.6	2.5	-1.9	0.73	i	3	-8
Cc1cccn2cc(CNC(=O)C3CCCCC3)nc12	.	.	.	3.0	3.0	0.71	.	-6	-2
CC[N+](CC)(CC#Cc1ccccc1)CC#Cc1ccccc1	-45*	-4.9*	3.1*	2.9	3.8	0.64	i	4	-6
COc1ccc(OC)c(NS(=O)(=O)c2ccc(NC(=O)C3COc4ccccc4O3)cc2)c1 (stereo not drawn)	.	.	.	2.4	-5.1	0.7	.	2	-3
CCN(CC)S(=O)(=O)c1ccc(NC(=O)CCNC(=O)c2ccccc2)cc1	-8	-8	-0.8	3.3	-1.6	0.66	i	-6	6
O=C(COC(=O)CNC(=O)c1ccco1)Nc1ccc(F)cc1	16	13	1.8	1.7	-4.5	0.65	i	-6	-8
CCCOc1ccc(Oc2nc(-c3ccncc3)nc3ccccc23)cc1	-6	-5	-1.2	3.3	2.8	0.7	i	0	-9
Cc1cccc(NS(=O)(=O)c2ccc3c(c2)OCCO3)c1	.	.	.	1.8	-0.4	0.64	.	1	4
Cc1cc(NC(=O)c2cccc(S(=O)(=O)N3CCOCC3)c2)c2ccccc2n1	-5	-13	2.1	-1.2	0.7	0.75	.	-10	-4
CC(NC(=S)NC1CCC(C(C)(C)C)CC1)c1ccccc1 (stereo not drawn)	-6	-25	6.4	5.8	-0.7	0.67	i	6	-32
C=CCNC(=O)c1ccc(NC(=O)CC2SC(N3CCCC3)=NC2=O)cc1 (stereo not drawn)	8	9	0.3	-0.2	-1.7	0.67	i	-5	4
CCCC(=O)N1CCCC1(C)C(=O)Nc1cccc(OC(C)C)c1 (stereo not drawn)	13	15	1.3	.	2.9	.	i	.	.
CSc1ccc(OC2(C)CCN(Cc3cc4ccccc4o3)C2)cc1 (stereo not drawn)	9	-41	-0.2	.	0.0	.	i	.	.
CC(C)(C)N(C=C(Cl)Cl)C(=O)NC1CCCCC1	.	.	.	5.9	-0.4	0.77	.	6	.
Cc1cc(N2C(=O)C3C4CCC(C4)C3C2=O)no1 (stereo not drawn)	17	8	0.8	0.1	6.0	0.67	i	9	-3
CN1CCN(C2=CC3=CC(=C(C#N)C#N)CCC3CC2)CC1 (stereo not drawn)	.	.	.	26*	-101	0.64	.	-845	.
COC(=O)c1cn(Cc2ccccn2)c(=O)c2ccccc12	-12	5	-5.0	2.8	0.2	0.68	i	-4	-8
CCC(C)(C)NC(=O)c1cc(C(=O)OC)cc([N+](=O)[O-])c1	.	.	.	1.8	-1.8	0.7	.	-8	0
CN(c1ccccc1C(=O)Nc1cccnc1)S(C)(=O)=O	.	.	.	0.1	-3.6	0.68	.	5	-9
O=C(Nc1ccccc1)c1ccc(S(=O)(=O)NCc2ccco2)cc1	.	.	.	4.1	2.1	0.77	.	.	-3
Cc1ccc(C(=O)N/N=C/C=C/c2ccccc2)cc1	8	12	0.1	.	2.9	.	i	0	-5
CCc1ccc(-c2nc(CS(=O)CC(=O)NCCCN3CCOCC3)c(C)o2)cc1 (stereo not drawn)	0	-4	-3.3	-1.4	4.7	0.67	i	-1	100*
Cc1cc(C)n2nc(SC(C)C(=O)Nc3ccccc3F)nc2n1 (stereo not drawn)	6	12	0.3	0.4	-0.9	0.72	i	-13	-3
CCc1ccc(OCC(=O)NC(NC(=S)Nc2ccccc2OC)C(Cl)(Cl)Cl)cc1 (stereo not drawn)	1	8	7.6	4.9	-1.4	0.71	i	9	-8
CC1CCCCN1Cc1c(O)ccc2c(=O)c(-c3ccc(Cl)cc3)coc12 (stereo not drawn)	-7	-4	-3.0	-425	5.9	0.69	i	6	-15
COc1cc2[nH]c(=S)n(Cc3ccc(C)o3)c(=O)c2cc1OC	.	.	.	-1.7	1.0	0.73	.	7	-13
Cc1cc(C)cc(NC(=O)Nn2cnnc2)c1	11	15	2.1	1.4	2.4	0.71	i	-5	-11
O=C(O)Cc1ccc(-n2cccc2)cc1	7	2	-1.2	5.3	-30	0.7	.	2	8
CCCOc1ccc(NC(=O)CC2C(=O)N(CC)C(=S)N2CCNC(C)=O)cc1 (stereo not drawn)	.	.	.	2.8	1.9	0.67	.	-8	-4

An excerpt; the hit share may differ from the screen's.
